From PubChem BioAssay
Vaccinia mCherry: vaccinia inhibition (mCherry reporter); Vaccinia virus mCherry reporter infection, fluorescence; about a quarter of the inactives have no number; Potency, µM (top dose mostly 36.5 µM), without a hit: at the highest dose activity change, negative = inhibition, hits mostly inhibitors; 310,000 tested, 0.63% active; AID 720579; active = well fitted inhibition curve with a large enough effect; inconclusive = small, poorly fitted or top-dose-only effect; inactive = no such curve, though single readings can be large or run the other way; tested in A549 cells; also: nearly all actives have a fitted effect of over 35% in size; inactives centre near -10
VACV Venus inh: inhibitors of vaccinia virus (Venus reporter); Vaccinia virus Venus reporter expression, fluorescence; Potency, µM (highest dose often 36.5 µM), for the others: at the highest dose activity change, negative = inhibition, most hits filed as inhibitors; 330,000 tested, 0.46% active; active means well fitted inhibition curve with a large enough effect; inconclusive means small, poorly fitted or top-dose-only effect; inactive means no such curve, though single readings can be large or run the other way; tested in A549 cells; also: nearly all actives have a fitted effect of over 30% in size; inactives centre near -10
* = called active by the depositor; i = inactive; ? = inconclusive; . = not tested or not shown; [ ] = dose if it differs, or a comment. % is scaled to controls: 0 for no effect and ±100 for the full control effect; potency is read from the fitted curve at half-maximal effect.

SMILES	Vaccinia mCherry	VACV Venus inh
COc1ccc(-n2nnc3c(SCC(=O)NCC4CCCO4)ncnc32)cc1 (centres undefined)	-17.6%	-14.6%
CCOC(=O)CSc1ccc(C(=O)Nc2ccc(Cl)cc2)cn1	i	-16.2%
COC(=O)c1cc(S(=O)(=O)N2CCN(c3ccc(OC)cc3)CC2)c[nH]1	-10.1%	-14.4%
CCC1(C)N=C(N)Nc2nc3cc(C)c(C)cc3n21 (centres undefined)	i	-15.1%
O=C(CSc1nnc(CNC(=O)c2ccc(F)cc2)o1)NCc1ccc(F)cc1	-9.4%	-2.9%
CC(C)N(C(=O)[C@H]1C[C@H](CC(=O)NCC23CC4CC(CC(C4)C2)C3)C(=O)N2CCc3c([nH]c4cc(-c5ccco5)ccc34)[C@]12C)C(C)C	28.2µM*	?
CCc1ccc(NC(=O)COC(=O)CN2C(=O)COc3ccccc32)cc1	-2.3%	9.0%
CC(=O)c1cccc(NC(=O)c2c(-c3c(F)cccc3Cl)noc2C)c1	i	-6.5%
COc1ccc2sc(-c3ccc(S(C)(=O)=O)cc3)c(-c3ccc(SC)cc3)c2c1	-23.5%	-6.8%
Cc1ccc(-n2c(SCC(=O)c3c(N)n(C)c(=O)n(C)c3=O)nc3sc4c(c3c2=O)CCCC4)c(C)c1	4.7%	-16.1%
C=CS(=O)c1sc(Cl)c(N2CCOCC2)c1[N+](=O)[O-] (centres undefined)	?	-26.2%
COc1ccc(CSc2nc3ccncc3n2CC(=O)Nc2cc(C)cc(C)c2)cc1	-3.1%	-4.7%
CCOC(=O)c1cc(-c2ccccc2)n(CCC(=O)Nc2cc(OCC)ccc2OCC)c1C	-12.2%	-6.9%
COc1cccc(C(c2nnnn2C(C)(C)C)N2CCN(C/C=C/c3ccccc3)CC2)c1OC (centres undefined)	13.2%	-17.4%
O=C(NC1CCCCC1)c1ccccc1-c1ccccc1	i	-15.8%
CCc1ccc(C(C(=O)NC2CCCC2)N(C(=O)c2csnn2)C2CC2)cc1 (centres undefined)	-13.2%	-5.3%
COC(=O)c1ccc(N2Cc3ccccc3/C2=N\C(=O)Nc2ccccc2)cc1	-15.4%	-0.8%
Cc1ccc(CSc2nc3ccc(NC(=O)C(C)C)cc3s2)cc1	i	-5.9%
COc1cc(-c2c(C(C)=O)c(C)nc3c2C(=O)c2ccccc2-3)cc(OC)c1OC	4.1%	-0.4%
Cn1c(SCC(=O)N2c3ccccc3CCc3ccccc32)nnc1-c1ccc(O)cc1	-5.9%	-20.2%
O=C(CCSCc1cccc(F)c1)NCc1ccccc1	-5.7%	-0.6%
COC(=O)C1=C(c2cccc(C#N)c2)C[C@@H]2CC[C@H]1N2C(=O)N1CCOCC1	-13.5%	-8.1%
Cc1nnc(Nc2ccc(O)cc2)[nH]c1=O	-13.0%	-4.2%
COc1cccc(C(=O)NNC(=O)Cc2ccc([N+](=O)[O-])cc2)c1	-10.3%	-15.6%
O=C(CCC(=O)NNC(=O)Cc1ccccc1)NCc1ccccc1	-6.2%	-8.5%

(continued)
SMILES	Vaccinia mCherry	VACV Venus inh
O=C(OCc1ccc(F)cc1Cl)c1ccccn1	?	-7.4%
COc1ccc(N2CC(C(=O)Nc3ccccc3C(=O)NC3CC3)CC2=O)cc1 (centres undefined)	18.9%	5.7%
Cc1c(Br)c([N+](=O)[O-])nn1C(C)C(=O)Nc1nccs1 (centres undefined)	-6.8%	-3.5%
CCCC(=O)Nc1cc(C(=O)O)ccc1S(=O)(=O)c1ccc(Cl)cc1	-16.8%	-10.5%
O=C(NC(NC(=O)c1ccccc1)c1cccc([N+](=O)[O-])c1)c1ccccc1	i	-13.6%
COc1ccccc1C(=O)Nc1cc(-c2cccc(Br)c2)nn1-c1ccccc1	-2.0%	?
CC(=O)OCC(=O)Nc1ccc(SC(F)F)cc1	i	-18.1%
CCOC(=O)C[C@@H]1OC[C@H](C)N1S(=O)(=O)c1ccc(C)cc1	i	-4.9%
CCn1cc(S(=O)(=O)c2ccccc2)c(=O)c2cc(C)ccc21	-6.7%	-2.6%
Fc1cccc(NC(=S)Nc2ccc(Br)cc2)c1	?	-26.4%
Cc1cccc(NC(=O)CSc2ccc(-c3ccccn3)nn2)c1C	?	?
COc1ccccc1NC(=O)Cc1nnc(SCC(=O)NC2CCCC2)n1C	i	10.0%
COc1ccc(CCNC(=O)c2ccc3nc(Cc4ccccc4)oc3c2)cc1OC	-13.0%	-3.2%
Cc1ccc(F)cc1NC(=O)c1c(-c2ccccc2)noc1C	i	3.5%
COc1cccc(C2c3[nH]c4ccccc4c3CCN2CCCn2cccn2)c1 (centres undefined)	?	-5.1%
CCOc1ccc(N2C(=O)/C(=C/c3cccs3)N(C)C2=S)cc1	-3.4%	-15.9%
Cc1cccc(NC(=O)CSc2nc3ccccc3c(=O)n2C)c1C	-10.0%	-24.1%
Cc1ccc(-n2c(=O)cc(N3CCCCCC3)[nH]c2=O)cc1	-9.8%	-5.1%
COC(=O)[C@@]12CCCN1[C@H](c1ccc(-c3ccc4c(c3)OCO4)cc1)[C@H]1C(=O)N(C)C(=O)[C@H]12	-10.1%	-7.9%
CC(C)OP(C)(=O)CN1CCN(CP(C)(=O)OC(C)C)CC1 (centres undefined)	-18.8%	-5.3%
CCOC(=O)C1CCCN(C(=S)NC(=O)c2cc(Br)ccc2Cl)C1 (centres undefined)	4.7%	8.1%
CCCNC(=O)N(C)C[C@@H]1Oc2cc(Br)ccc2S(=O)(=O)N([C@@H](C)CO)C[C@H]1C	12.2%	-21.1%
COc1ccccc1/C=N/NC(=O)CN(C1=NS(=O)(=O)c2ccccc21)c1ccccc1	-2.6%	?
Cc1cccc(-c2noc(CNC(=O)c3ccc4c(c3)OCO4)n2)c1	-5.0%	0.0%
O=C1NC[C@H](Cc2ccccc2)N(CC2CCN(CCC3CCCC3)CC2)C1=O	-11.0%	-23.7%

Eleven structures already listed, ordered by count of non-hydrogen atoms, low to high:
SMILES	Vaccinia mCherry	VACV Venus inh
O=C(OCc1ccc(F)cc1Cl)c1ccccn1	?	-7.4%
Cc1c(Br)c([N+](=O)[O-])nn1C(C)C(=O)Nc1nccs1 (centres undefined)	-6.8%	-3.5%
Cc1ccc(-n2c(=O)cc(N3CCCCCC3)[nH]c2=O)cc1	-9.8%	-5.1%
CCn1cc(S(=O)(=O)c2ccccc2)c(=O)c2cc(C)ccc21	-6.7%	-2.6%
CCOC(=O)C1CCCN(C(=S)NC(=O)c2cc(Br)ccc2Cl)C1 (centres undefined)	4.7%	8.1%
Cc1cccc(-c2noc(CNC(=O)c3ccc4c(c3)OCO4)n2)c1	-5.0%	0.0%
COc1ccccc1NC(=O)Cc1nnc(SCC(=O)NC2CCCC2)n1C	i	10.0%
COc1ccc(N2CC(C(=O)Nc3ccccc3C(=O)NC3CC3)CC2=O)cc1 (centres undefined)	18.9%	5.7%
COc1ccc(CCNC(=O)c2ccc3nc(Cc4ccccc4)oc3c2)cc1OC	-13.0%	-3.2%
COc1ccccc1/C=N/NC(=O)CN(C1=NS(=O)(=O)c2ccccc21)c1ccccc1	-2.6%	?
COC(=O)[C@@]12CCCN1[C@H](c1ccc(-c3ccc4c(c3)OCO4)cc1)[C@H]1C(=O)N(C)C(=O)[C@H]12	-10.1%	-7.9%

(further entries)
SMILES	Vaccinia mCherry	VACV Venus inh
CC12CCC(=O)N1C(C(=O)NNC(=O)COc1ccc(Br)cc1)CS2 (centres undefined)	-14.8%	-10.6%
c1ccc(CNCc2ccc3c(c2)OCO3)nc1	-2.3%	-1.9%
CCn1cc(C(=O)N2CCN(c3cccc(Cl)c3)CC2)c(=O)c2cc(S(=O)(=O)N3CCCCC3)ccc21	i	-7.2%
CCOc1cc(OCC)cc(C(=O)N2CCC[C@H]2C(=O)N2CCC[C@H]2C(=O)NCc2ccncc2)c1	22.1%	5.5%
O=S(=O)(c1cc(Cl)ccc1Cl)N1CCC2(CC1)OCCO2	-17.3%	0.4%
CCOc1ccc(C2C(C(=O)/C=C/c3ccco3)=C(O)C(=O)N2CCN2CCOCC2)cc1OC (centres undefined)	10.0%	3.3%
Cc1csc2c(NC3CCN(Cc4ccccc4)CC3)ncnc12	-21.1%	-27.9%
Cc1ccccc1N1C(=O)NC(=O)/C(=C\c2cc(C)n(C)c2C)C1=O	?	6.0%
Cc1cccc(NC(=O)CSc2nc3c([nH]c4ccccc43)c(=O)n2-c2cc(C)cc(C)c2)c1	-28.8%	-15.8%
CC(O)Cn1ccccc1=N (centres undefined)	.	-29.5%
Cc1cc(C)c(NC(=O)CC(=O)c2ccccc2)c(Cl)c1	i	2.3%
COC(=O)[C@@]12CCCN1[C@H](c1ccc(-c3ccccc3)cc1)[C@@H]1C(=O)N(C)C(=O)[C@@H]12	-1.6%	-10.9%
CC(C)(C)c1ccc(C2(C)NC(=O)NC2=O)cc1 (centres undefined)	-12.5%	24.7%
CCOc1ccc(OCCN(C)Cc2ccccc2)cc1	-7.4%	-8.8%
CCCN(C(=O)CSc1nc2ccccc2n1CC)C1CCS(=O)(=O)C1 (centres undefined)	-17.0%	-9.3%
O=C(CSc1nnc(-c2ccncc2)n1Cc1ccccc1)NC1CCCc2ccccc21 (centres undefined)	-14.1%	-13.6%
CSc1ccc(CN(C)C(=O)c2cc(=O)c3ccccc3o2)cc1	-6.3%	0.0%
C[C@@H]1CCCCO[C@@H](CN(C)C(=O)c2ccncc2)[C@@H](C)CN([C@H](C)CO)C(=O)c2cc(NC(=O)Cc3ccccc3)ccc2O1	-13.1%	-10.8%
CCOC(=O)Nc1ccc(NC(=O)c2c(OC)cccc2OC)cc1	-23.0%	-18.2%
CSc1ccccc1NC(=O)c1ccc(CN2CCOCC2)cc1	-9.0%	-3.5%
CC1CCN(C2=C(NS(=O)(=O)c3ccccc3)C(=O)c3ccccc3C2=O)CC1	?	-13.5%
COC(=O)C1C(=O)c2c([nH]c(C(=O)OCCSC)c2C)CC1C (centres undefined)	-6.1%	-0.3%
CCOc1ccc(CCNC(=O)COC(=O)c2ccc(OC)c(OC)c2OC)cc1OCC	-14.8%	-6.2%
CCOc1ccc(N2C(=O)CC(Sc3nc(CC(C)C)ccc3C#N)C2=O)cc1 (centres undefined)	?	-10.4%
COc1ccc(C(=O)/C=C/Nc2cc(C)ccn2)cc1	i	-13.3%

Continuation.
SMILES	Vaccinia mCherry	VACV Venus inh
CCCCn1nnnc1C(c1ccccc1)N1CCN(c2cccc(C)c2C)CC1 (centres undefined)	i	-5.9%
S=c1[nH]nc(COc2ccc(Cl)cc2)n1C1CCCCC1	-7.3%	-12.2%
NC(=S)COc1ccccc1	-2.3%	-8.5%
COc1ccc(OC)c(Cc2nnc(CCC(=O)N3CCCCCC3)o2)c1	i	-1.4%
CC1CCN(Cc2ccc(-c3nnn(CC(=O)Nc4ccccc4Cl)n3)cc2)CC1	-10.3%	-1.9%
CN(C)c1ccc(/C=C(/NC(=O)c2ccccc2)C(=O)N2CCCC2)cc1	0.4%	-0.8%
COc1nc(-c2ccccc2)ccc1-c1noc(-c2ccccc2F)n1	.	-2.5%
CCOc1cc(CNCc2ccccn2)cc(Cl)c1OC	i	-2.9%
O=Cc1ccc(N2CCCC2)c(F)c1	-10.7%	-4.8%
Cc1ccc(NC(=O)C2(N3CCC3=O)CCCCC2)cc1	-3.0%	-0.8%
CCN(CC(=O)Nc1cccc(Br)c1)Cc1nc2ccccc2c(=O)[nH]1	-24.3%	-16.4%
COc1ccc(N(C)S(=O)(=O)c2cccc(C(=O)NC3CCCC(C)C3C)c2)cc1 (centres undefined)	-21.3%	?
CCOC(=O)N1CCC(NC(=O)c2ccc3c(c2)N(Cc2cc(C)ccc2C)C(=O)c2ccccc2S3(=O)=O)CC1	-12.6%	-5.8%
COc1ccc(/C=C/c2c([N+](=O)[O-])c(=O)n(C)c(=O)n2C)cc1OC	-5.0%	-1.7%
CCC(NC(=O)NC1=NCCS1)(C(F)(F)F)C(F)(F)F	i	-7.4%
Cc1cccc(N2CCN(C(=O)Cn3c(=O)c4cccn4c4ccc(F)cc43)CC2C)c1 (centres undefined)	-14.2%	-6.6%
Cc1sc2ncnc(N3CCC(C(=O)NNC(=O)COc4ccc(Br)cc4)CC3)c2c1C	-27.5%	-18.5%
COc1cc(NC(=O)NCCn2nnc3cc(S(=O)(=O)N(C)C)ccc32)cc(OC)c1OC	3.3%	6.3%
COc1ccc2c(c1)CCC/C2=N\OC(=O)c1ccccc1F	i	-12.7%
C[C@@H]1C(c2cccc(Cl)c2)=NN(c2ccc(Br)cc2)[C@H]1C(=O)N1CCOC1=O	i	0.0%
COc1ccc(Cl)cc1S(=O)(=O)Nc1ncn[nH]1	i	-8.3%
COc1cc(NC(=O)c2ccc(NC3=NC4CS(=O)(=O)CC4S3)cc2)cc(OC)c1OC (centres undefined)	i	-12.8%
O=S(=O)(Nc1cccc(-c2ccc(N3CCOCC3)nn2)c1)c1cc(Cl)ccc1Cl	-5.4%	-9.4%
Cc1sc2ncnc(SCc3ccco3)c2c1C	.	-8.0%
CC(C)C(NC(=O)C1CCCCC1)C(=O)NC1CCCC(C)C1C (centres undefined)	-19.0%	-16.4%
O=c1oc2c(CN3CCN(CCO)CC3)c(O)ccc2cc1-c1ccccc1	-11.2%[7.34 µM]	-16.4%[7.34 µM]
C1=Nc2c(NCc3ccccc3)ncnc2Oc2ccccc21	-10.9%[1.46 µM]	-23.6%
Cc1coc2cc3oc(=O)c(CCC(=O)NC4CC4)c(C)c3cc12	-13.8%	-10.3%
